Rce1 inh: yeast Rce1p protease inhibitors, primary screen, biochemical, fluorescence, cell-free homogeneous. CAAX prenyl protease 2 (Saccharomyces cerevisiae (strain ATCC 204508 / S288c)), Q03530. yeast membranes, quenched prenylated peptide cleavage fluorescence. calls only. 0.27% of 290,000 active. AID 2563, 2010;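 active = fall in fluorescence gain of 50% or more versus controls, with final raw signal at or below 3038400; inconclusive = same 50% fall but final raw signal above 3038400; inactive = fall in fluorescence gain under 50%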;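 note: plate controls were neutral control wells for no effect and wells lacking membranes for full effect; tested at 10 µM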
PABP polyA inh: PABP poly(A) RNA binding inhibitors, primary screen, biochemical, fluorescence polarization, uHTS; inhibition, % at 35 µM; 1% of 290,000 active; Polyadenylate-binding protein 1 (Homo sapiens), P11940;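 active = 50% or more with normal probe brightness, or confirmed in later tests; inconclusive = above 50% with abnormal brightness, or retests that disagree; inactive = below 50% or failed in later tests; about a fifth of its hits are not listed in these tables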;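 note: calls also rest on retests at 20 µM and on dose response follow-up; controls were probe without protein and protein plus probe with vehicle; some compounds called inactive have numbers as strong as hits; many hits fall short of the cut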
Target sequence (P11940 whole entry, looked up): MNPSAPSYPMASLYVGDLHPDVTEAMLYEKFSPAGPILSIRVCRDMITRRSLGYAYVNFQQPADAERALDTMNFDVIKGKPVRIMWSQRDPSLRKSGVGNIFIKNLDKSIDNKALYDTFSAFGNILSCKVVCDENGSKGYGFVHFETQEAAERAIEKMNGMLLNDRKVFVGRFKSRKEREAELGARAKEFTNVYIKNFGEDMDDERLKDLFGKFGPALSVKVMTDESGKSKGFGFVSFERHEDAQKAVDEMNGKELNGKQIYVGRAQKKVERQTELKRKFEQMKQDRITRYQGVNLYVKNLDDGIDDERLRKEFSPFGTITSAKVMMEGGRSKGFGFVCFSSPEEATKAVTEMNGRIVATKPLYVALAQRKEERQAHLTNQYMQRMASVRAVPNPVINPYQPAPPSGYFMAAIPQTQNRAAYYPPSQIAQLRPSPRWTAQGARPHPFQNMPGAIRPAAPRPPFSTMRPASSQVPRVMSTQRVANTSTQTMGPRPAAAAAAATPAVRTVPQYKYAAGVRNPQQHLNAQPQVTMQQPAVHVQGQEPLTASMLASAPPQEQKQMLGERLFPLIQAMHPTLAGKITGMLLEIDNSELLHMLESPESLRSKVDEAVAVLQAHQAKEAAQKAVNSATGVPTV
MT1-MMP act inh: blockers of MT1-MMP proenzyme processing, primary screen, HT1080 RFP-PRO-GFP cells, GFP/RFP fluorescence; Matrix metalloproteinase-14 (Homo sapiens), P50281; GFP/RFP ratio change, % at 20 µM; 0.061% of 360,000 active; AID 651647, 2012; GFP/RFP ratio fluorescence, overnight; percent of plate control window, DMSO zero;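 active = GFP/RFP ratio change of at least 30% with cell ATP level not reduced by more than half and red fluorescence within 50% of control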; note: strong numbers were not always called active
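Material – HT1080 RFP-PRO-GFP cells · Control set – DMSO wells and RFP-L50D-GFP cells · Incubation – overnight cell settling, then overnight compound exposure, 37 °C, 5% CO2 · Compound dosing – single-point 20 µM compound, 1% DMSO · Read-out – GFP/RFP fluorescence ratio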
UUG fidelity: modulators of yeast start codon fidelity, primary screen, whole organism, S. cerevisiae, single point, plate reader; S. cerevisiae UUG-firefly luciferase reporter, luminescence/redox ratio; activity score, % at 18.7 µM; 0.13% of 350,000 active;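 active = replicate mean at a twofold rise or more, about +100% in these data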;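 note: firefly luciferase made from a UUG start codon reports start codon fidelity; reporter light over untreated wells divided by growth signal over untreated wells; some hits fall short of that in this replicate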
CSC inhib: cancer stem cell viability inhibitors, primary screen, luminescence; 1.1% of 300,000 active; inhibition, % at 7.5 µM; cancer stem cell-like cells viability;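 active = mean at 75% or more and at least half the replicates too; inconclusive = mean and replicates disagree; tested in HMLE shEcad cells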;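 note: 0% = median of negative and 100% = median of positive control wells; the first replicate is given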
HIV Env fusion: inhibitors of HIV-1 Env-driven cell-cell fusion, primary screen, HeLa-JRFL effector, CEM21 target cells, luciferase | inhibition, % at 12.3 µM | 1.1% of 360,000 active | AID 651610, 2012;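 active = mean replicate inhibition score of at least 50 and every replicate individually at or above 50; inconclusive = only one of the two criteria met; inactive = mean below 50 and not all replicates reaching 50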;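 note: 0% = plate neutral controls and 100% = maraviroc near 300 nM; one replicate is shown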
eIF4H inh: human eIF4H binding inhibitors, primary screen, translation initiation inhibitor project, biochemical, uHTS, fluorescence polarization | Eukaryotic translation initiation factor 4H (Homo sapiens), Q15056 | eIF4H fluorescence polarization binding assay | inhibition, % at 35 µM | 0.94% of 290,000 active | AID 2012, 2009;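 active = 50% or more with normal probe brightness, or confirmed in later tests; inconclusive = above 50% with abnormal brightness, or retests that disagree; inactive = below 50% or failed in later tests; about a fifth of its hits are not listed in these tables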;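 note: calls also rest on retests at 20 µM and on dose response follow-up; 0% = protein and probe with vehicle and 100% = probe without protein; strong numbers were not always called active; many hits fall short of the cut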
eIF4H inh retest: recorded beside eIF4H inh, whose call it bears; inhibition, %; compound at 20 µM; confirmation average;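 mean of two retest wells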
PABP polyA inh retest: further read-out of PABP polyA inh, marked with its call; inhibition, %; compound at 20 µM; confirmation repeats;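 mean of two retest wells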
MT1-MMP act inh RFP: further read-out of MT1-MMP act inh, marked with its call; RFP signal change, %; measured here: RFP expression control read;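 0 = vehicle wells; hits needed this value within 50% of zero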
Starred values were filed as active, the others as inactive; i = inactive; ? = inconclusive; . = no result given.

SMILES	Rce1 inh	PABP polyA inh	MT1-MMP act inh	MT1-MMP act inh RFP	UUG fidelity	CSC inhib	HIV Env fusion	eIF4H inh	others
CCN(CC)CCNC(=O)c1ccc(NC(=O)c2cc(S(=O)(=O)N3CCCCC3)ccc2C)cc1	i	.	7	-1	10	.	7	.
CC1CCCN(C(=O)COC(=O)C2CCN(S(=O)(=O)c3ccc(Cl)c(C(F)(F)F)c3)CC2)C1 (stereo not drawn)	i	.	-4	-1	-6	-15	?	.
CCOC(=O)C1CCCN(C(=S)Nc2ccc(C)cc2C)C1 (stereo not drawn)	i	-5	-7	-3	-17	-6	-97	-4
O=C(c1cc(S(=O)(=O)N2CCOCC2)ccc1F)N1CCCc2ccccc21	i	0	0	-4	2	-10	.	1
Cc1noc(C)c1C(=O)N(CC(=O)Nc1ccc(Cl)c(C(F)(F)F)c1)Cc1ccco1	.	.	2	6	2	8	0	.
COc1ccc(/C=C2/S/C(=N/N=C3\CC4CCC3(C)C4(C)C)NC2=O)cc1 (stereo not drawn)	i	-2	8	3	-14	.	.	6
O=C(COC(=O)C1CCN(S(=O)(=O)c2cccs2)CC1)Nc1ccc(F)c(F)c1F	.	.	0	2	-13	.	-10	.
Cc1ccc2c(C)c(C(=O)N(C)C(C)c3ccncn3)oc2c1C (stereo not drawn)	i	9	-2	-2	1	-2	-18	-7
COc1ccc(CNc2ncc(-c3ccccc3)n2C)c2ccccc12	i	-8	-2	-1	-5	20	10	-8
CC(=O)Nc1ccc(NC(=O)COc2ccc(S(=O)(=O)N3CCCC3)cc2)cc1	i	-7	3	4	-12	4	-100	-3
COC(=O)c1ccc(C(=O)OC)c(NC(=O)CSc2n[nH]c(N)n2)c1	.	.	2	3	-14	-23	-10	.
CC(=O)c1ccc(NC(=O)Nc2cccc3ccccc23)cc1	i	-2	1	0	0	-4	.	-9
C[N+]1(C2CCC3CCCC2C3O)CCCC1 (stereo not drawn)	i	4	-3	1	.	-10	10	12
Cc1cccc(COC(=O)CCCNC(=O)c2ccc(Cl)cc2)c1	.	.	0	5	4	-2	.	.
O=C(CSc1nnc(-c2ccncc2)n1C1CCCCC1)Nc1cccc(O)c1	i	0	-5	-4	-11	-10	-20	3
O=C(COC(=O)C1Cc2ccccc2CN1C(=O)c1ccccc1)Nc1ccc(SC(F)F)cc1 (stereo not drawn)	i	-12	-3	-4	.	-5	33	2
CC(=O)Oc1ccc(-c2cccc(C(=O)O)c2)cc1	i	-4	6	-2	.	-6	.	2
CCOC(=O)c1c(NC(=O)c2c(C(=O)O)cccc2[N+](=O)[O-])sc2c1CCCC2	i	2	1	2	-9	-4	-3	0
CN(C)/C=C(/C(=O)c1ccc(Cl)cc1)n1cncn1	i	2	-3	4	.	-15	4	2
Cc1cc2ncn(/N=C/c3ccc4c(c3)OCO4)c2cc1C	i	7	1	3	.	6	-4	-4
CC(=O)Nc1ccc(Br)c2ccccc12	i	56	1	0	.	-1	7	-4	eIF4H inh retest=-12;PABP polyA inh retest=16
CCc1ccc(OCC(=O)NC(=S)Nc2ccc(S(=O)(=O)NC3CCCCC3)cc2)cc1	i	2	-1	-3	-11	-1	.	-9
CC(C)N1CCc2c(sc(NC(=O)CCS(=O)(=O)c3ccccc3)c2C#N)C1	i	8	-8	-2	-18	33	.	-12
CCOc1ccc(NC(=O)CN(C)C(=O)CC2OC(=O)c3ccccc32)cc1OCC (stereo not drawn)	i	.	-2	-2	-3	-8	.	.
CC(C)CCNC(=O)COc1ccc2c3c(c(=O)oc2c1)CCC3	i	-2	-2	1	-3	1	-14	4
CCC(Sc1ccc2nnc(-c3cccnc3)n2n1)C(=O)O (stereo not drawn)	i	9	0	4	-11	-3	-5	-8
COc1ccc(NS(=O)(=O)c2ccc3c(c2)OCCO3)cc1OC	i	-3	4	-27	-3	-3	93*	9
CCN1CCc2nc(NC(=O)c3ccc(S(=O)(=O)N(C)C)cc3)sc2C1	i	0	-5	0	-17	-6	-18	10
CCCCC(=O)Nc1cccc(-c2nnc(-c3ccccc3)o2)c1	i	-1	13	-1	-20	.	-64	3
O=C1CCN(Cc2ccccc2)CCN1CCSc1ccccc1	i	8	-5	2	-10	3	-62	-2
CCc1cccc(C)c1NC(=O)COC(=O)Cc1ccsc1	i	-6	9	10	-9	-13	-50	4
CN(Cc1cccs1)C(=O)Cn1cnc2ccccc2c1=O	i	18	-3	0	.	6	-6	-8
COC(=O)Cc1cc(=O)[nH]c(/N=C(\N)Nc2ccccc2)n1	i	-17	4	-1	.	-11	-59	-6
O=C(COC(=O)c1ccc2[nH]c3c(c2c1)CCCC3)Nc1ccc(Cl)cc1Cl	i	0	4	2	.	22	-31	-6
CCN(c1cccc(C)c1)S(=O)(=O)c1ccc(-c2cc(C)no2)s1	i	34	0	-13	-11	58	7	88*	eIF4H inh retest=76*;PABP polyA inh retest=40
COc1cc2c(cc1OC)C(c1cc(Br)ccc1O)N(C(C)=O)CC2 (stereo not drawn)	i	.	0	3	.	-10	4	.
NS(=O)(=O)c1ccc(NC(=O)COC(=O)c2cn(-c3ccccc3)nc2-c2ccccc2)cc1	i	0	18	2	-2	6	-6	5
C#CCOCCOCCOCCNc1nc(N2CCN(C(=O)Cn3cc(CCCCN)nn3)CC2)nc(N2CCN(C(=O)[C@H]([C@@H](C)CC)n3cc(CCCCN)nn3)CC2)n1	.	.	3	6	-2	-8	11	.
O=C(C1=NN[C@@H]2C(=O)N(c3ccccc3C(F)(F)F)C(=O)[C@H]12)C(c1ccccc1)c1ccccc1	i	10	-2	-2	.	-8	19	-4
COc1ccc(/C=C/C(=O)N2CCN(c3ccccc3)CC2)cc1S(=O)(=O)N1CCOCC1	i	-6	-4	-24	.	-10	14	0
CC(NC(=O)c1ccccc1F)c1nnc(SCC(=O)NC2CCCCC2)n1C (stereo not drawn)	i	2	3	1	-3	-12	-45	1
COCCCNC(=O)c1cn(-c2cccc(OC)c2)c(=O)c2ccccc12	i	6	3	3	-4	-2	-1	9
Cc1ccc(C)c(Cn2nnc3c(=O)[nH]c(C4CCN(S(=O)(=O)c5ccc(S(=O)(=O)N(C)C)cc5)CC4)nc32)c1	i	0	0	-6	-16	-4	22	-14
Cc1ccc(-c2cc(C(=O)Nc3cc(C)on3)no2)cc1	.	0	7	9	.	-8	-13	2
CCCn1nnc(NC(=S)NC(=O)/C=C/c2ccco2)n1	i	26*	-1	4	-25	-6	10	80*	eIF4H inh retest=84*;PABP polyA inh retest=72*
CCCCNC(=O)Cn1nc(C)c(S(=O)(=O)N2CCOCC2)c1C	.	.	-2	-1	-9	-4	2	.
Cc1onc(-c2c(Cl)cccc2Cl)c1C(=O)N1CCSCC1	i	0	1	0	-7	-1	8	-10
COc1ccccc1NC(=S)N(Cc1ccccc1)Cc1cccnc1	i	-4	1	2	.	-17	6	2
Cc1ccc(S(=O)(=O)N2CC(=O)Nc3ccccc32)cc1	i	8	0	1	-12	-9	.	-8
CCOC(=O)N1CCN(C(=O)C2CCC(=O)N(Cc3cccc(C(F)(F)F)c3)C2)CC1 (stereo not drawn)	i	6	2	0	-8	-1	-21	-4
CCc1ccc(S(=O)(=O)Nc2ccncc2)cc1	.	6	0	0	0	0	0	3
CC1CN(C(=O)N[C@@H](Cc2ccccc2)C(=O)O)CC(C)O1 (stereo partly drawn)	i	-1	4	3	-11	2	.	-4
CN(C)CCOC1c2ccccc2C=Cc2ccccc21	i	.	.	.	.	4	5	.
Cc1ccc(C(=O)C[n+]2ccccc2)cc1	i	42	-1	2	-21	-14	-5	-12
COc1ccccc1CNC(=O)Cn1cc(Br)ccc1=O	.	0	4	3	-14	-14	-1	-7
COc1cc(Cl)c(C)cc1NC(=O)Cc1cccs1	i	5	7	1	-11	0	15	16
O=C(c1ccco1)N1N=C(c2ccccc2O)CC1c1cccs1 (stereo not drawn)	.	.	0	-4	18	.	7	.
CC(=O)NN1C(=O)c2ccc(Oc3ccc4c(c3)C(=O)N(NC(C)=O)C4=O)cc2C1=O	i	4	.	.	.	-1	.	-2
CCOC(=O)C1(Cc2cccc(F)c2)CCN(Cc2c(C)nn(CC)c2C)CC1	i	0	0	-6	3	3	4	2
Cc1ccc(Cl)c(NC(=O)CCl)c1Cl	i	14	0	-1	.	11	-29	-12
Remaining list, next part:
SMILES	Rce1 inh	PABP polyA inh	MT1-MMP act inh	MT1-MMP act inh RFP	UUG fidelity	CSC inhib	HIV Env fusion	eIF4H inh	others
CSc1nc2nc(-c3cccc(C(F)(F)F)c3)ccn2n1	i	34	5	-1	-11	3	-20	1
c1ccc2c(c1)Cc1cc3ccccc3nc1-2	i	0	-3	2	-26	-4	-164	-2
COC(=O)Cc1ccc(OCC(=O)Nc2ccc(OC(F)(F)F)cc2)cc1	i	-1	6	-1	.	9	.	0
Cc1cc2ccccc2n2c(SCC(=O)Nc3ccc(S(=O)(=O)N4CCCCC4)cc3)nnc12	i	1	1	-9	.	11	1	0
COc1cc(C(=O)Nc2ccc3c(c2)C(=O)c2ccccc2C3=O)cc(OC)c1OC	i	-2	2	4	-12	-7	-26	4
CCOC(=O)c1cc(C)[nH]c(=S)c1C#N	i	0	12	3	3	12	.	7
CC(C)CN(C(=O)COC(=O)CCC(=O)c1ccc(F)cc1)c1c(N)n(Cc2ccccc2)c(=O)[nH]c1=O	i	.	0	2	10	.	.	.
Brc1ccc(C2=CC(c3ccco3)n3nnnc3N2)cc1 (stereo not drawn)	i	7	-20	1	.	-8	0	-2
Cc1cc(/C=N/NC(N)=S)c(C)n1-c1ccc(Br)cc1	i	-13	-1	-3	.	0	-28	-3
CCCCCCCCCCCCCCCC(=O)NCCO	.	.	1	1	-16	2	-10	.
CC(=O)c1cccc(NC(=O)c2ccncc2)c1	i	13	7	-1	-6	-10	1	-4
O=c1[nH]c(=O)c2cc3ccccc3nc2[nH]1	.	.	2	4	-8	.	-13	.
Clc1ccc(C2CC(c3ccccc3)Nc3ncnn32)cc1 (stereo not drawn)	i	-8	4	0	-6	10	14	-13
Cc1nc(-c2ccccc2Cl)sc1C(=O)/C=C/N(C)C	i	-3	-8	-4	-14	-2	-2	-12
CCOc1ccc(C(=O)OCC(=O)NC(C)C)cc1	i	0	0	6	.	-12	15	7
CC(=O)Oc1ccc(C(=O)O)cc1OC(C)=O	i	12	0	-1	-10	-2	.	-8
COc1ccc(NC(=O)NCCCN2CCN(c3ccccc3F)CC2)cc1	i	0	0	-1	-2	1	5	0
CC(=O)c1ccc(N=C2NC(=O)C(CO)(CO)S2)cc1	i	0	-2	-1	-20	-7	-13	-11
COCCN(C(=O)COC(=O)Cc1cccc(OC)c1)c1c(N)n(Cc2ccccc2)c(=O)[nH]c1=O	i	.	-1	-3	-4	-11	5	.
O=[N+]([O-])c1cccc(-c2n[nH]c(=S)n2Cc2ccccc2)c1	i	-6	4	0	.	-4	-5	-14

Only part of the results is shown (hit frequency here may not be typical).
